Screening data: PubChem BioAssay, National Center for Advancing Translational Sciences (NCATS)
GLA inh pH 4.5: qHTS Assay for Inhibitors of Human alpha-Galactosidase at pH 4.5. activity change, negative = inhibition, % at 105 µM. AID 1467, 2008. Alpha-galactosidase A (Homo sapiens), P06280. purified enzyme, 4-MU-alpha-Gal fluorescence, pH 4.5. 230,000 tested, under 10 active; inconclusive = small, poorly fitted or top-dose-only inhibition, or a rising curve; inactive = flat fitted curve, though single readings scatter; no compound was filed as active;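 further: 0% = full activity with enzyme and -100% = basal without enzyme; dose as in the result columns while the protocol names 77 µM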
Rango complex inh: qHTS Assay for Inhibitors of Rango (Ran-regulated importin-beta cargo) - Importin beta complex formation. Importin subunit beta-1 (Homo sapiens), Q14974. Rango CFP/YFP FRET sensor + importin beta, 45 min. Potency, µM (highest dose often 92.2 µM), for the others: at the top dose inhibition of complex formation. 340,000 compounds, 0.031% hits; active = rising FRET ratio curve, often small or poorly fitted; inconclusive = mostly compound fluorescence or quenching in the first reads; inactive = flat curves in all reads;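 further: potency means the concentration at half of the fitted maximal effect; 0% = DMSO wells and 100% = buffer wells lacking importin beta; nearly all actives have a fitted effect of over 15% in size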
Target sequence (Q14974 whole entry, looked up): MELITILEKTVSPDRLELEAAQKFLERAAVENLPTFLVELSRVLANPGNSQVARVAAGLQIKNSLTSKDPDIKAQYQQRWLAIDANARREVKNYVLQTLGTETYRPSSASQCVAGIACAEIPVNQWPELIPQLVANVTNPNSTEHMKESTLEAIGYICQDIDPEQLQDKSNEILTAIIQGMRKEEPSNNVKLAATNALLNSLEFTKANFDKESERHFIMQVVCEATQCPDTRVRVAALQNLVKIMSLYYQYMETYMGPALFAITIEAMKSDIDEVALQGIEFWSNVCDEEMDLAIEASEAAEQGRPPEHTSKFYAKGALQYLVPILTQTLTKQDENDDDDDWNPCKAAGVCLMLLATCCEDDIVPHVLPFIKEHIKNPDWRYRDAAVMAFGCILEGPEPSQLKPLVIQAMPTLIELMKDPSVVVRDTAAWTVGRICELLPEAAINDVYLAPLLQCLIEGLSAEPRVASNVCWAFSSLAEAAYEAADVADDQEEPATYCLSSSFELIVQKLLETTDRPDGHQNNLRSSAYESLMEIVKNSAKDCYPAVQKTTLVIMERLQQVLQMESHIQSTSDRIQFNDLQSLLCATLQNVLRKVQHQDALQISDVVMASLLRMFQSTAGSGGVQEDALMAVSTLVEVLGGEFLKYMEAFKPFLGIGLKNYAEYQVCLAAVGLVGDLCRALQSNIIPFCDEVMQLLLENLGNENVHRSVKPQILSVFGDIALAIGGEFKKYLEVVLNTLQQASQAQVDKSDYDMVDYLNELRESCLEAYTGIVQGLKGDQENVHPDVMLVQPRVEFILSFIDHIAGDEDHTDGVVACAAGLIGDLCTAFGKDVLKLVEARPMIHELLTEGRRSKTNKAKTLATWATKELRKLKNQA
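Inhibition scored from the CFP 486 nm/YFP 530 nm FRET ratio 45 min after adding 0.125 microM importin beta to 50 nM Rango biosensor preincubated 5 min with compound (room temperature, PBS with DTT, Tween-20, BSA). No-importin wells as positive control.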
miR-21 FLuc: qHTS Assay for Modulators of miRNAs and/orActivators of miR-21; HeLa miR-21 FLuc reporter, luciferase, 48 h; AID 2288, 2010; 340,000 tested, under 10 active; Potency, µM (highest dose often 38.3 µM), without a hit: at the top dose reporter change, positive = more light; active = well fitted rising curve with a large enough effect; inconclusive = small, poorly fitted or top-dose-only effect; inactive = no such curve, though single readings can be large or run the other way;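 further: % of control where 0% means no effect; miR-21 action dims this reporter so a rising signal means less miR-21 action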
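Luminescence from a firefly luciferase reporter carrying a miR-21 binding site downstream, stably expressed under a CMV promoter in HeLa cells that make miR-21 endogenously, reports miRNA modulation after 48 h compound exposure up to approximately 40uM final.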
Rango release inh: qHTS Assay for Inhibitors of RanGTP induced Rango (Ran-regulated importin-beta cargo) - Importin beta complex dissociation; Snurportin-1 (Homo sapiens) + GTP-binding nuclear protein Ran (Homo sapiens) + Importin …; Biochemical FRET Rango-importin beta, RanGTP-induced dissociation; Potency, µM (top dose mostly 46.1 µM), for inactives: at the highest dose activity change, negative = inhibition; 340,000 compounds, 0.071% hits; AID 540253, 2011; active means falling FRET ratio curve, often poorly fitted, with flat reads before Ran was added; inconclusive means other falling curves, or compound fluorescence or quenching; inactive means flat or rising ratio curve;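 further: potency means the concentration at half of the fitted maximal effect; % of control where 0% means no effect; nearly all actives have a fitted effect of over 45% in size; -100% = wells without RanGTP and RCC1; the record marks most hits as doubtful in a second field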
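Recombinant Rango FRET biosensor (EYFP–snurportin 1 IBB–cerulean CFP10) at 0.1 uM premixed with 0.25 uM importin beta in PBS, 1 mM DTT, 0.02% Tween-20, 0.1% BSA. Compound added 5 min; RanGTP-RCC1 (0.6 uM Ran, 2 mM GTP, 0.2 uM RCC1) then triggers release, read at 45 min.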
Active calls of the source: *; u = inconclusive; x = no result given; & = joins results of further samples. These rows are one share of the data, so the mix of outcomes need not match the whole.

Every second line gives: GLA inh pH 4.5 | Rango complex inh | miR-21 FLuc | Rango release inh
- COc1cc(/C=N/Nc2ccc(Cl)c(C(=O)O)c2)ccc1OC(=O)c1ccco1
 : -16 | -3.0% | -38% | 9%
- CCN(CC)c1ccc(C(=O)OCC(=O)NC2CCCCC2C)cc1 (configuration not stated)
 : 8 | -1.2% | -5% | 0%
- CNC(=O)CC(C(=O)O)c1ccc(OCC(C)C)cc1 (configuration not stated)
 : -3 | 0.4% | -5% | 2%
- Fc1ccc(-c2csc(=S)[nH]2)cc1
 : 4 | 3.2% | -12% | 31%
- CCOC(=O)c1sc(NC(=O)/C=C/c2cnn(CC)c2C)c(C(=O)OCC)c1C
 : -2 | -3.6% | -3% | -2%
- Cc1ccc(OCCC(=O)OCC(=O)Nc2cc(C)nn2-c2ccccc2)cc1
 : x | 4.2% | 0% | -1%
- CCN(Cc1ccncc1)C(=O)CSc1ccc2ccccc2c1
 : -2 | -2.9% | -4% | -2%
- O=C(COC(=O)c1cc2ccccc2o1)NCc1ccco1
 : x | 1.7% | x | -13%
- CCOc1ccc(NC(=O)CN(C)Cc2cc(=O)n3c(-c4ccccc4)csc3n2)cc1OCC
 : -11 | 2.1% | -31% | -17%
- COc1ccc(C2C(C(=O)Nc3ccc4c(c3)OCCO4)c3ccccc3C(=O)N2C)cc1 (configuration not stated)
 : 4 | -0.1% | 0% | 0%
- COc1ccc(-c2cc(C#N)nc(Oc3ccc(Cl)cc3)n2)cc1
 : 6 | 0.2% | 5% | -13%
- CCc1nnc(NC(=O)C(NS(=O)(=O)c2ccc3c(c2)OCCO3)C(C)C)s1 (configuration not stated)
 : 1 | -3.9% | 0% | 4%
- O=C1OC(Cc2ccccn2)C(=O)C1=C1SCCS1 (configuration not stated)
 : -1 | -0.3% | -28% | 10%
- O=C(c1cccc(S(=O)(=O)N2CCc3ccccc32)c1)N1CCc2ccccc2C1
 : x | 0.0% | x | -4%
- Cc1ccc(O)c(-c2cc(-c3ccccc3C)[nH]n2)c1
 : -12 | 1.3% | 0% | -14%
- Cc1cccc(NC(=S)NC2CC3C=CC2C3)c1 (configuration not stated)
 : -4 | -2.1% | -21% | 5%
- COCc1cc(C)nc(SCC(=O)NC2CCCCC2C)c1C#N (configuration not stated)
 : x | 1.4% | 0% | 9%
- Cc1cc2c(cc1C)-c1nnc(-c3ccc4ccccc4n3)n1C(C)(C)C2
 : -3 | x | -1% | x
- C=CCn1cc(C(=O)OCC)c(=O)c2cc(F)c(F)cc21
 : 0 | -1.0% | 0% | 0%
- O=c1[nH]c(CN2CCN(c3ccccc3O)CC2)nc2scc(-c3ccccc3Cl)c12
 : -13 | 4.3% | 17% | 0%
- CCOC(=O)C(CC)n1cnc2c(nnn2-c2ccc(F)cc2)c1=O (configuration not stated)
 : x | -0.8% | -9% | u
- CC1(C)COC(c2ccccc2Cl)OC1
 : x | 1.3% | x | -3%
- Clc1ccc(-c2onc3c2CCCC3)cc1
 : 3 | 2.6% | -20% | -5%
- COc1ccc2nc3cc(Cl)ccc3c(Nc3cc(C(C)C)c(O)cc3C)c2c1
 : -2 | u | u | u
- O=C(NCc1cccnc1)c1ccc(-c2cc(Cl)ccc2Cl)o1
 : -16 | -2.3% | -14% | -4%
- CC(=O)C[C@H](O)CC(=O)[C@@H]1OC(=O)CCCCC/C=C/Cc2ccccc21
 : x | -3.7% | x | -7%
- Cc1c(C(=O)O)oc2ccc(S(=O)(=O)N(CC(C)C)CC(C)C)cc12
 : 4 | 0.7% | -4% | 0%
- CCOC(=O)N1CCN(Cc2oc(CO)cc(=O)c2O)CC1
 : -7 | 3.5% | 1% | -4%
- CC(C)N(C(=O)[C@H]1CC(CC(=O)NCCN2CCOCC2)C(=O)N2CCc3c([nH]c4ccccc34)[C@]12C)C(C)C (some centres not stated)
 : x | -5.1% | x | 4%
- CC(=O)CC(=O)NC1CCc2ccccc21 (configuration not stated)
 : x | -3.8% | x | 8%

A few values from the results shown.
Entry for O=c1[nH]c(CN2CCN(c3ccccc3O)CC2)nc2scc(-c3ccccc3Cl)c12 in miR-21 FLuc: 17%
Entry for CCOC(=O)N1CCN(Cc2oc(CO)cc(=O)c2O)CC1 in Rango complex inh: 3.5%
Entry for CC(=O)CC(=O)NC1CCc2ccccc21 (configuration not stated) in Rango release inh: 8%
Entry for CCOC(=O)C(CC)n1cnc2c(nnn2-c2ccc(F)cc2)c1=O (configuration not stated) in Rango complex inh: -0.8%
Entry for CC(=O)C[C@H](O)CC(=O)[C@@H]1OC(=O)CCCCC/C=C/Cc2ccccc21 in Rango complex inh: -3.7%

For reference, 2 of the compounds above:
Every second line gives: GLA inh pH 4.5 | Rango complex inh | miR-21 FLuc | Rango release inh
- Cc1cccc(NC(=S)NC2CC3C=CC2C3)c1 (configuration not stated)
 : -4 | -2.1% | -21% | 5%
- COCc1cc(C)nc(SCC(=O)NC2CCCCC2C)c1C#N (configuration not stated)
 : x | 1.4% | 0% | 9%

Additional results follow.
Every second line gives: GLA inh pH 4.5 | Rango complex inh | miR-21 FLuc | Rango release inh
- Cc1cc2cc(CN(CCN3CCOCC3)C(=O)Nc3ccccc3F)c(=O)[nH]c2cc1C
 : -11 | -0.2% | -7% | 13%
- CC(=O)Nc1ccc(OCC(O)CN2CCN(c3ccc(C)c(Cl)c3)CC2)cc1 (configuration not stated)
 : 0 | 2.6% | 18% | -13%
- C=C(c1ccccc1Cl)[n+]1ccccc1
 : x | u | 16% | -12%
- CN(C)S(=O)(=O)c1cccc(NC(=O)c2sccc2-c2ccccc2)c1
 : x | 0.8% | -1% | 21%
- CCC(=O)Nc1ccc(C(=O)NNC(=O)C2CCCCC2)cc1
 : x | -1.3% | -7% | -5%
- CCN(CC)C(=S)SCC(=O)c1ccc(Br)cc1
 : 1 | -0.1% | -44% | 5%
- Cc1nc(SCc2ccc(O)c([N+](=O)[O-])c2)c([N+](=O)[O-])[nH]1
 : -1 | 5.1% | 0% | 1%
- O=C(NC(=S)NC1CCCCCCCCCCC1)c1cccnc1
 : -8 | -0.6% | 1% | 11%
- O=c1oc(CCCO)cc2ccc(/C=C/c3cccc([N+](=O)[O-])c3)cc12
 : x | 0.0% | x | -1%
- O=C(COC(=O)c1ccc([N+](=O)[O-])cc1)NC12CC3CC(CC(C3)C1)C2
 : x | 2.9% | x | -6%
- O=C(O)CSCNC(=O)CC12CC3CC(CC(C3)C1)C2
 : -8 | 0.5% | 2% | -4%
- CN(C)c1ccc(C(CNC(=O)COc2ccc(Cl)cc2)N2CCCC2)cc1 (configuration not stated)
 : x | -2.4% | -6% | -9%
- COc1cc2c(cc1OC)C(C)N(C(=O)Nc1ccc(F)cc1)CC2 (configuration not stated)
 : x | -0.1% | 19% | 14%
- COc1ccc([C@H]2CC(=O)C=C(c3cccc(Cl)c3)C2)cc1OC
 : x | -0.2% | x | -4%
- CC1CCCCC1NC(=O)c1ccc(NC2=NC3CS(=O)(=O)CC3S2)cc1 (configuration not stated)
 : x | -4.4% | -3% | -20%
- Cc1nc2ccc(-c3nc4cc(N)ccc4o3)cc2[nH]1
 : 5 | -3.8% | 9% | 0%
- COC(=O)[C@H](CCSC)NC(=O)Cn1cnc2c(OCc3ccccc3)ncnc21
 : x | 0.1% | x | 0%
- CCOC(=O)N1CCC(NC(=O)c2cc(C(=O)NCc3cccc(Cl)c3)ccc2CO)CC1
 : 7 | -0.4% | 20% | -5%
- CC(C)C[C@H](NC(=O)OC(C)(C)C)C(=O)NCC1CCC(C(=O)N[C@@H](Cc2ccccc2)C(=O)O)CC1 (some centres not stated)
 : x | -1.1% | 0% | -4%
- CCn1c(SCC(=O)Nc2cc(C)on2)nc2c1c(=O)n(C)c(=O)n2C
 : -14 | -0.1% | 0% | 6%
- COC(=O)C1=C(C(=O)OC)[C@@H]2N(C)c3ccccc3[C@@]23C[C@@H](C(=O)OC)N(C(C)=O)C3=N1
 : -4&-8 | -0.9% | 0% | 15%
- Cc1cc(/C=N/NC(=O)C(O)(c2ccccc2)c2ccccc2)c(C)n1-c1ccc(C(=O)O)cc1
 : -5 | 1.5% | 1% | -4%
- CC(C)COC(=O)CNc1n[nH]c(=S)[nH]c1=O
 : 5 | 5.0% | -2% | 7%
- COc1ccc(OC)c(C(=O)NC(CC(N)=O)c2ccc(N3CCN(c4ccccn4)CC3)c([N+](=O)[O-])c2)c1 (configuration not stated)
 : x | -1.2% | 2% | -3%
- O=C(CN1C(=O)NC(Cc2c[nH]c3ccccc23)C1=O)NCCc1ccc(F)cc1 (configuration not stated)
 : x | -2.4% | 4% | 11%
- Cc1nn(C(C)(C)C)c(C)c1/C=N/OC(=O)Nc1ccc(Cl)c(Cl)c1
 : -29 | 1.2% | 27% | 12%
- COc1ccc([N+](=O)[O-])cc1NCc1ccccc1
 : 5 | 0.9% | -26% | -21%
- CCCC(C)C(=O)Nc1ccc(S(=O)(=O)Nc2nccc(C)n2)cc1 (configuration not stated)
 : 5 | 2.1% | -4% | u
- O=C(NCc1ccc2c(c1)OCO2)c1cc(-c2ccccc2)on1
 : -3 | 3.4% | -1% | -12%
- CC(C)(C)NC(=O)C1CCN(C(=O)c2ccc(Br)cc2)CC1
 : 2 | -3.7% | -4% | -7%
- CCCc1nnc(NC(=O)CCC(=O)NC2CCCCCC2)s1
 : x | -4.7% | -1% | 14%
- COc1ccc(NC(=O)c2ccc(N3CCOCC3)nc2)cc1
 : x | -0.7% | 1% | -1%
- COc1cccc(-c2nn(-c3ccc(F)cc3)cc2C(=O)NCC2CCCO2)c1 (configuration not stated)
 : x | -0.1% | x | 43%
- NNC(=O)c1cc2nc(-c3cccs3)cc(C(F)(F)F)n2n1
 : 5 | u | 4% | u
- CN(Cc1ccccc1)C(=O)COC(=O)c1cncc(Br)c1
 : 3 | -1.1% | 5% | 1%
- COc1cccc(CNc2ccc3[nH]c(=O)[nH]c3c2)c1OCc1ccccc1Cl
 : x | u | 3% | 11%
- Cc1cccc(C)c1OCc1cc(C(=O)N2CCN(c3ccccn3)CC2)no1
 : x | -0.2% | -35% | -7%
- O=C(NCc1cccc(Br)c1)C1CC(c2ccc(C(F)(F)F)cc2)=NO1 (configuration not stated)
 : x | -1.8% | x | -7%
- COc1ccc(CC(=O)N2CCC(n3nccc3NC(=O)C3CC3)CC2)cc1
 : x | 3.4% | -10% | 12%
- COc1ccc2c(c1OC)C(=O)N(c1cccc(C)c1)C2
 : 0 | -0.4% | -15% | 5%
- C=CC[C@@H](Cc1ccc(F)cc1)C(=O)OC[C@H]1CCCN1C(=O)[C@@H](CC=C)CC(=O)N[C@@H](CO)Cc1ccccc1
 : x | 0.5% | x | 6%
- O=C(CCS(=O)(=O)c1cccs1)N1CCN(c2ccc(F)cc2)CC1
 : -1 | -0.2% | -38% | 1%
- NC(=S)N/N=C\c1c(OCc2ccccc2Cl)ccc2ccccc12
 : -26 | 3.6% | 21% | -12%
- CCOc1ccccc1C(=O)N1CCC(n2nnc3cc(C(F)(F)F)ccc32)CC1
 : 1 | -4.1% | -1% | -8%
- COc1cccc(-c2nnc(SCC(=O)N3CCCC3=O)n2-c2ccccc2)c1
 : 17 | -1.3% | -7% | 2%
- CN1CCN(S(=O)(=O)c2cccc(S(=O)(=O)c3cccc(S(=O)(=O)N4CCN(C)CC4)c3)c2)CC1
 : 9 | 7.8% | -6% | 22%
- Cc1[nH]c2ccc(C(=O)NCc3ccccn3)cc2c1C
 : x | -4.4% | -45% | u
- CCc1cccc(CC)c1NC(=O)COC(=O)C1(C)CC1(Cl)Cl (configuration not stated)
 : 11 | 1.4% | 1% | 2%
- CC1CCCCC1NS(=O)(=O)c1ccc2c(c1)CCC(=O)N2 (configuration not stated)
 : x | -1.8% | x | -5%
- C/C=C/c1ccc(OCCNCc2ccccc2)c(OC)c1
 : x | 0.4% | -4% | 10%
